Screening results: PubChem BioAssay, Broad Institute
RanGTP-Imp inh – inhibitors of RanGTP-importin-beta interaction, primary screen, biochemical, FRET, CFP-Ran, YFP-importin-beta, homogeneous; AID 2216, 2009; inhibition, % (test concentration not listed); actives 1.1% (n = 300,000); Ran GTPase (GTP-bound) - importin-beta complex; cell-free CFP-Ran/YFP-importin-beta FRET ratio;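 active means most replicates above 15%; inconclusive means exactly half above 15%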;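 further: 0% = DMSO wells and 100% = Ran loaded with GDP instead of GTP; wells of about 40 µL received 100 nL stock; the first replicate is given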
T cruzi repl – inhibitors of intracellular T. cruzi growth, primary screen, luminescence, NIH3T3 host cells. T. cruzi beta-gal in NIH3T3, 90 h. inhibition, % (test concentration not listed). actives 1.4% (n = 300,000). AID 1885, 2009;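 active means mean inhibition across valid replicates above about 55%, limit read from the data; inconclusive means mean below that limit but half or more replicates reach it; inactive means mean below it, under half of replicates reach it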;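 further: signal also drops with host cell toxicity which is not excluded here; 0% = plate median of DMSO wells and 100% = zero luminescence signal; higher percent means less beta-gal luminescence so fewer parasites; stock transfer was 50 nL into about 50 µL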
ALR inh – inhibitors of human ALR sulfhydryl oxidase, primary screen, biochemical, H2O2 detection, HRP-luminol luminescence, single point | actives 3.8% (n = 290,000) | FAD-linked sulfhydryl oxidase ALR (Homo sapiens), P55789 | inhibition, % (concentration not given with the values) | purified ALR, DTT oxidation;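 active means mean and each replicate at 75% or more; inconclusive means only one of the two met; inactive means neither met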;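 further: stock transfer was 7.5 nL into about 7.5 µL; 0% = neutral wells and 100% = wells with inactivated enzyme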
Target sequence (P55789 whole entry, looked up): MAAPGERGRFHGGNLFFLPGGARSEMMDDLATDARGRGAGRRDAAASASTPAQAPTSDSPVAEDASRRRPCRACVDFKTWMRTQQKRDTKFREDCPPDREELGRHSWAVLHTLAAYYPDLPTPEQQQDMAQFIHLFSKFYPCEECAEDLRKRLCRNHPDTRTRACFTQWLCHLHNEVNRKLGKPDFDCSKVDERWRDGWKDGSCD
FGF22 binding – binders of human FGF22 protein, primary screen, FGF22 synaptogenesis inhibitor project, biophysical, thermal shift, single point; calls only at 9.99 µM; actives 1.5% (n = 340,000); recombinant FGF22 thermal shift, SYPRO orange fluorescence; percent of sucrose octasulfate shift, DMSO zero; AID 651658, 2012;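 active means melting point raised past a set limit in the mean and every replicate; inconclusive means no clear call; three in four hits are not shown here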
Target sequence (Q9HCT0 whole entry, looked up): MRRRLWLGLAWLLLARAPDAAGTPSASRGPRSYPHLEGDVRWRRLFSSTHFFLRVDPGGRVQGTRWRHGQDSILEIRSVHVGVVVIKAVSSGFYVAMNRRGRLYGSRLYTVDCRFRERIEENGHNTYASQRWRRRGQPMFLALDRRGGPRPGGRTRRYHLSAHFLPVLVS
Calb FLC – C. albicans growth inhibition with fluconazole, primary screen, CaCi-2 strain, Alamar Blue fluorescence; C. albicans CaCi-2 (fluconazole-resistant clinical isolate) + fluconazole, 48 h; growth inhibition, % (no concentration beside the values); actives 0.57% (n = 300,000);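 active means most replicates above 75%; inconclusive means exactly half above 75%; inactive means most below 75%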;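 further: all wells also contain fluconazole at 8 µg/ml as a sub-toxic cotreatment; 0% = median of DMSO wells and 100% = median of geldanamycin control wells; wells of about 8 µL received 7.5 nL stock; the first replicate is given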
AF4-AF9 inh – inhibitors of AF4 peptide binding to AF9, primary screen, biochemical, AlphaScreen, biotin-AF4 peptide, FLAG-AF9, single point. inhibition, % at 10 µM. actives 0.47% (n = 350,000);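 active means every replicate reaching a set inhibition limit, whatever the replicate mean, cut at about 25% in these data; inconclusive means mean inhibition reaches that limit but some replicates miss it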;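 further: 0% = plate neutral control median and 100% = total signal loss; the record names both 10 and 1 µM as test concentration; the first replicate is given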
Target sequence (P42568 whole entry, looked up): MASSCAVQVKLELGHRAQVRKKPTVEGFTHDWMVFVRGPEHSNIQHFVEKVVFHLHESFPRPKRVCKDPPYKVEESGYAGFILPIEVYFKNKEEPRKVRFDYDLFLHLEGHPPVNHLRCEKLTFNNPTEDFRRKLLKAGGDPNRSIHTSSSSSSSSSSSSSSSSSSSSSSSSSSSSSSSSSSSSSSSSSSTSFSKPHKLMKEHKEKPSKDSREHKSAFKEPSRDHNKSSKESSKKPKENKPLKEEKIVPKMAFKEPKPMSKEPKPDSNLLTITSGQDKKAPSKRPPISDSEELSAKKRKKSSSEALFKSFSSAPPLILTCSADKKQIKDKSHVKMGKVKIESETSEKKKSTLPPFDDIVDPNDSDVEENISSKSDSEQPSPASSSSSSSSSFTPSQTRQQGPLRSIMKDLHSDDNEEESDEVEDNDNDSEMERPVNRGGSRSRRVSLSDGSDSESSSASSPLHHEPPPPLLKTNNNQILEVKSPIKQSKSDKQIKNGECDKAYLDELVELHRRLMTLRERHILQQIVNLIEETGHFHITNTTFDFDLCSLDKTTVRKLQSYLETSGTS
Ecoli rRNA inh – reduced GFP signal of wild-type E. coli, primary screen, bacterial rRNA inhibitor project, GFP/RFP fluorescence, OD600, single point; actives 1.6% (n = 350,000); E. coli WT GFP vs humanized-ribosome RFP mutants, 24 h; stronger effect = lower value; DMSO median 0, no signal -100; GFP signal change (wild-type ribosome), % (concentration not given with the values);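 active means significant combined selectivity score with lowered wild-type GFP, culture density cut under 30%, mutant RFP and density less affected; inactive means any of these conditions unmet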; further: one replicate is shown; some compounds called inactive have numbers as strong as hits
Beta apoptosis – inhibitors of cytokine-induced beta cell apoptosis, primary screen, luminescence. AID 435005, 2010. INS-1E cytokine-induced death, ATP luminescence, 48 h; percent of positive-control rescue, neutral wells zero. protection from apoptosis, % (concentration not given with the values). actives 0.8% (n = 300,000);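 active means all replicates at 75% or more, or half of them and the mean; inconclusive means half reach 75% but not the mean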;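 further: 0% = cytokine-treated negative control wells and 100% = positive control rescue; higher means more ATP so stronger rescue from cytokine killing; wells of about 40 µL received 100 nL stock; the first replicate is given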
Ecoli rRNA inh OD600 – recorded beside Ecoli rRNA inh, whose call it bears; OD600 change, %; measured here: OD600 growth;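 optical density of the mix in the first replicate; 0 = DMSO median and -100 = no signal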
Ecoli rRNA inh RFP – recorded beside Ecoli rRNA inh, whose call it bears; RFP signal change, %; measured here: RFP humanized mutant strains;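 first replicate; 0 = DMSO median and -100 = no signal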
* marks the source's active call; other numbers are inactive results.

How did O=C(NCc1ccccc1Cl)C1(S(=O)(=O)c2ccc(Cl)cc2)CC1 do in these assays?
RanGTP-Imp inh: 0.2; T cruzi repl: -1; FGF22 binding: inactive; Calb FLC: -6; AF4-AF9 inh: 0.3; Ecoli rRNA inh: -10; Beta apoptosis: 2; Ecoli rRNA inh OD600: -25; Ecoli rRNA inh RFP: 0.6

How did CCCCn1c(Nc2ccc(OC)cc2)nc2ccccc21 do in these assays?
RanGTP-Imp inh: -0.5; T cruzi repl: 8; ALR inh: 31; FGF22 binding: inactive; Calb FLC: -9; AF4-AF9 inh: -0.9; Ecoli rRNA inh: 7; Beta apoptosis: 6; Ecoli rRNA inh OD600: 13; Ecoli rRNA inh RFP: -1.0

Results for O=C(/C=C/c1ccccc1)NNC(=O)c1ccco1 ?
RanGTP-Imp inh: 0.8; T cruzi repl: -1; ALR inh: -8; FGF22 binding: inactive; Calb FLC: -4; AF4-AF9 inh: -1.1; Ecoli rRNA inh: 6; Beta apoptosis: -3; Ecoli rRNA inh OD600: 4; Ecoli rRNA inh RFP: -0.7

Results for Cc1cc(S(=O)(=O)N2CCCOC2CNC(=O)C(=O)NCCCN2CCOCC2)ccc1F (stereo not drawn) ?
RanGTP-Imp inh: inconclusive; T cruzi repl: 1; ALR inh: -6; FGF22 binding: inactive; Calb FLC: 4; AF4-AF9 inh: -2.0; Ecoli rRNA inh: 8; Beta apoptosis: -14; Ecoli rRNA inh OD600: 6; Ecoli rRNA inh RFP: -2.0

Results for CC(=O)Nc1ccccc1C(=O)C(=O)Nc1cccc(C(=O)NCc2ccccc2)c1 ?
RanGTP-Imp inh: -5.7; T cruzi repl: -14; ALR inh: -1; FGF22 binding: inactive; Calb FLC: -2; AF4-AF9 inh: -25; Ecoli rRNA inh: -10; Beta apoptosis: 1; Ecoli rRNA inh OD600: -13; Ecoli rRNA inh RFP: 3.0

Results for O=S(=O)(c1cccc2cnccc12)N1CCNCC1 ?
ALR inh: 7; FGF22 binding: inactive; AF4-AF9 inh: -0.7; Ecoli rRNA inh: 12; Beta apoptosis: 5; Ecoli rRNA inh OD600: 17; Ecoli rRNA inh RFP: 1.1

What do the screens show for `COC(=O)N(C)CCCC1(C)C(=O)N(C)c2ccc(O)cc21` (stereo not drawn)?
RanGTP-Imp inh: -0.1; T cruzi repl: 5; ALR inh: -2; Calb FLC: -11; Beta apoptosis: -3

What do the screens show for `CC(=O)N1CCc2cc(S(=O)(=O)NCCC(=O)Nc3cc(C)cc(C)c3)ccc21`?
RanGTP-Imp inh: -1.4; T cruzi repl: -15; ALR inh: -15; Beta apoptosis: 2

What do the screens show for `CCN(Cc1ccncc1)Cc1cn(C)nc1-c1ccc(Oc2ccccc2)cc1`?
RanGTP-Imp inh: 2.3; T cruzi repl: 44; ALR inh: -8; Calb FLC: -2; Ecoli rRNA inh: -14; Beta apoptosis: 7; Ecoli rRNA inh OD600: -16; Ecoli rRNA inh RFP: -5.1

Results for COc1ccc(C)cc1S(=O)(=O)N(C)CC(=O)NCc1ccncc1 ?
RanGTP-Imp inh: 0.1; T cruzi repl: 1; ALR inh: -7; FGF22 binding: inactive; Calb FLC: 2; AF4-AF9 inh: -1.2; Ecoli rRNA inh: 8; Ecoli rRNA inh OD600: 9; Ecoli rRNA inh RFP: -1.7

How did O=C(N1CCOCC1)C(F)(F)C(F)(F)C(F)(F)C(F)(F)C(=O)N1CCOCC1 do in these assays?
T cruzi repl: -8; ALR inh: 0; Calb FLC: -13; Beta apoptosis: 3

Results for COc1ccc(N2C(=O)c3ccc(C(=O)Nc4ccccc4O)cc3C2=O)cc1 ?
RanGTP-Imp inh: -3.7; T cruzi repl: -8; FGF22 binding: inactive; Calb FLC: 1; AF4-AF9 inh: -0.4; Ecoli rRNA inh: 1; Beta apoptosis: -1; Ecoli rRNA inh OD600: 9; Ecoli rRNA inh RFP: 8.5

Results for CC(C)c1nnc(NC(=O)C2CCCN2C(=O)Nc2ccc(F)cc2)s1 (stereo not drawn) ?
RanGTP-Imp inh: -5.9; T cruzi repl: -6; ALR inh: 0; FGF22 binding: inactive; Calb FLC: 7; AF4-AF9 inh: -2.4; Ecoli rRNA inh: 5; Beta apoptosis: -6; Ecoli rRNA inh OD600: 7; Ecoli rRNA inh RFP: -0.7

What do the screens show for `O=C(C1CCCCCC1)N1CC[C@@H](N2CCC(O)CC2)[C@H](O)C1`?
RanGTP-Imp inh: 27*; T cruzi repl: 5; ALR inh: 1; FGF22 binding: inactive; Calb FLC: -2; AF4-AF9 inh: -4.4; Ecoli rRNA inh: 16; Ecoli rRNA inh OD600: 20; Ecoli rRNA inh RFP: 5.0

Results for CCOC(=O)N1CCN(CCC(=O)c2ccc(Br)cc2)CC1 ?
RanGTP-Imp inh: 2.0; T cruzi repl: 40; ALR inh: 22; FGF22 binding: inactive; Calb FLC: -3; AF4-AF9 inh: -2.2; Ecoli rRNA inh: 16; Beta apoptosis: -10; Ecoli rRNA inh OD600: -3; Ecoli rRNA inh RFP: -3.0

What do the screens show for `COc1ccc(C(=O)N/N=C/c2ccccn2)cc1OC`?
RanGTP-Imp inh: 2.2; T cruzi repl: -16; ALR inh: -4; FGF22 binding: inactive; Calb FLC: inconclusive; AF4-AF9 inh: 0.6; Ecoli rRNA inh: -29*; Beta apoptosis: 0; Ecoli rRNA inh OD600: -11*; Ecoli rRNA inh RFP: -2.7*

Results for NC(N)=N/N=C/c1cccc(Cl)c1Cl ?
RanGTP-Imp inh: -1.0; T cruzi repl: 55*; ALR inh: 7; FGF22 binding: inactive; Calb FLC: -4; AF4-AF9 inh: 4.5; Ecoli rRNA inh: -18; Beta apoptosis: 12; Ecoli rRNA inh OD600: -13; Ecoli rRNA inh RFP: 0.5

Results for CCCOc1nc(SCCC)nc2c1cnn2-c1ccccc1 ?
RanGTP-Imp inh: inconclusive; T cruzi repl: 0; ALR inh: -37; FGF22 binding: inactive; Calb FLC: 3; AF4-AF9 inh: -4.4; Ecoli rRNA inh: 5; Beta apoptosis: 0; Ecoli rRNA inh OD600: 15; Ecoli rRNA inh RFP: -1.8

Results for CCOc1ccccc1/C=C/C(=O)N1CCN(C(=O)c2ccco2)CC1 ?
ALR inh: -1; FGF22 binding: inactive; AF4-AF9 inh: 7.0; Ecoli rRNA inh: -12; Beta apoptosis: -3; Ecoli rRNA inh OD600: -16; Ecoli rRNA inh RFP: 1.6

Results for COCCCn1c(SCC(=O)N2CCCCC2C)nnc1-c1ccco1 (stereo not drawn) ?
RanGTP-Imp inh: 1.1; T cruzi repl: 11; ALR inh: 14; Calb FLC: -30; Beta apoptosis: -3

How did Cc1cccc(C)c1OCc1nnc(SCC(=O)Nc2ccccc2F)o1 do in these assays?
RanGTP-Imp inh: -2.3; T cruzi repl: -8; ALR inh: 19; FGF22 binding: inactive; Calb FLC: 5; AF4-AF9 inh: 0.0; Ecoli rRNA inh: 6; Beta apoptosis: -5; Ecoli rRNA inh OD600: 1; Ecoli rRNA inh RFP: 2.0

How did O=C(CN1C(=O)C(=O)N(Cc2ccco2)C1=O)NC1CCCCC1 do in these assays?
RanGTP-Imp inh: -0.9; T cruzi repl: -3; ALR inh: 20; Calb FLC: -1; AF4-AF9 inh: -1.8; Ecoli rRNA inh: 16; Beta apoptosis: -1; Ecoli rRNA inh OD600: 22; Ecoli rRNA inh RFP: -1.3

Results for O=C(NC1CCCCC1)N1CCN(c2ccccc2)CC1 ?
RanGTP-Imp inh: -2.6; T cruzi repl: -16; Calb FLC: -23; Beta apoptosis: 5

How did O=C(NN=C1CCCC1)c1cccs1 do in these assays?
RanGTP-Imp inh: -0.4; T cruzi repl: 7; ALR inh: -5; Calb FLC: 1; Beta apoptosis: -14

Results for CC(C)(C)n1nc2c(c1NC(=O)c1ccccc1S(=O)(=O)C(F)F)CS(=O)(=O)C2 ?
RanGTP-Imp inh: -3.8; T cruzi repl: 4; ALR inh: -7; FGF22 binding: inactive; Calb FLC: 6; AF4-AF9 inh: -8.0; Ecoli rRNA inh: 5; Beta apoptosis: -3; Ecoli rRNA inh OD600: 8; Ecoli rRNA inh RFP: 1.7

Results for O=[N+]([O-])c1nn(-c2ccc3c(c2)OCCO3)n(O)c1=Nc1ccccc1 ?
RanGTP-Imp inh: 1.0; T cruzi repl: 41; ALR inh: -10; FGF22 binding: inactive; Calb FLC: 38; AF4-AF9 inh: 13; Ecoli rRNA inh: -19; Beta apoptosis: 5; Ecoli rRNA inh OD600: -21; Ecoli rRNA inh RFP: -13

How did Cn1c(SCc2ccc(F)cc2)nnc1-c1ccncc1 do in these assays?
RanGTP-Imp inh: -0.7; T cruzi repl: 1; ALR inh: -17; FGF22 binding: inactive; Calb FLC: 1; AF4-AF9 inh: 0.9; Ecoli rRNA inh: 0; Beta apoptosis: 5; Ecoli rRNA inh OD600: 7; Ecoli rRNA inh RFP: -4.8

What do the screens show for `CCO[C@H]1OC(C(=O)N2CCCCCCC2)=C[C@@H](C2CCCCC2)[C@@H]1CCCO`?
RanGTP-Imp inh: 0.1; T cruzi repl: 8; ALR inh: 2; FGF22 binding: inactive; Calb FLC: -6; Ecoli rRNA inh: -25; Ecoli rRNA inh OD600: -28; Ecoli rRNA inh RFP: -6.8

Results for Cc1ccc(/C=N/NC(=O)c2nnn(-c3nonc3N)c2CN(C)C)o1 ?
RanGTP-Imp inh: 2.0; T cruzi repl: 8; ALR inh: -2; FGF22 binding: inactive; Calb FLC: 3; AF4-AF9 inh: 4.4; Ecoli rRNA inh: 4; Beta apoptosis: -7; Ecoli rRNA inh OD600: 1; Ecoli rRNA inh RFP: -4.3

How did CCN(CC)CC(O)COCCC12CC3CC(CC(C3)C1)C2 (stereo not drawn) do in these assays?
RanGTP-Imp inh: 0.8; T cruzi repl: 53; ALR inh: -8; Calb FLC: -49; Beta apoptosis: 5

Results for Cn1c(SCC(=O)NCCN2C(=O)CSC2=O)nnc1-c1ccccc1 ?
RanGTP-Imp inh: 5.7; T cruzi repl: -19; ALR inh: -2; FGF22 binding: inactive; Calb FLC: 43; AF4-AF9 inh: -6.3; Ecoli rRNA inh: 5; Beta apoptosis: -5; Ecoli rRNA inh OD600: 2; Ecoli rRNA inh RFP: -8.9

A portion of the library; rates above refer to the full screens.
